Resorufin autofl: resorufin region autofluorescence; AID 588; actives 0.04% (n = 59,000); Compound fluorescence, resorufin region 547/598 nm, buffer; stronger effect = higher value; max dye-equivalent concentration, M; active = above 10 nM dye equivalent; inconclusive = 1 to 10 nM; inactive = 1 nM or less; a few of its hits are not listed in these tables; also: highest value over a series up to 38 µM
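Read-out: intrinsic compound fluorescence at ex 547/em 598 nm after 15 min at RT in pH 8.0 Tris (100 mM). Values expressed as resorufin-equivalent concentration from per-plate standard series.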
TSHR ag: activates the human thyroid stimulating hormone receptor. HEK293-CNG-TSHR cells (CNG channel as cAMP sensor), membrane potential dye, cAMP. Potency, µM (highest dose often 57.1 µM), for the others: at the top dose activation, most hits filed as activators. actives 0.48% (n = 73,000). AID 926; active = well fitted activation curve of enough size with the parental cells flat; inconclusive = any curve in the parental cells; inactive = parental cells flat and receptor cells flat or falling; also: potency is read from the fitted curve at half-maximal effect; % of control where 0% means no effect; weak receptor curves with flat parental cells got no call and are not listed
Target sequence (P16473 whole entry, looked up): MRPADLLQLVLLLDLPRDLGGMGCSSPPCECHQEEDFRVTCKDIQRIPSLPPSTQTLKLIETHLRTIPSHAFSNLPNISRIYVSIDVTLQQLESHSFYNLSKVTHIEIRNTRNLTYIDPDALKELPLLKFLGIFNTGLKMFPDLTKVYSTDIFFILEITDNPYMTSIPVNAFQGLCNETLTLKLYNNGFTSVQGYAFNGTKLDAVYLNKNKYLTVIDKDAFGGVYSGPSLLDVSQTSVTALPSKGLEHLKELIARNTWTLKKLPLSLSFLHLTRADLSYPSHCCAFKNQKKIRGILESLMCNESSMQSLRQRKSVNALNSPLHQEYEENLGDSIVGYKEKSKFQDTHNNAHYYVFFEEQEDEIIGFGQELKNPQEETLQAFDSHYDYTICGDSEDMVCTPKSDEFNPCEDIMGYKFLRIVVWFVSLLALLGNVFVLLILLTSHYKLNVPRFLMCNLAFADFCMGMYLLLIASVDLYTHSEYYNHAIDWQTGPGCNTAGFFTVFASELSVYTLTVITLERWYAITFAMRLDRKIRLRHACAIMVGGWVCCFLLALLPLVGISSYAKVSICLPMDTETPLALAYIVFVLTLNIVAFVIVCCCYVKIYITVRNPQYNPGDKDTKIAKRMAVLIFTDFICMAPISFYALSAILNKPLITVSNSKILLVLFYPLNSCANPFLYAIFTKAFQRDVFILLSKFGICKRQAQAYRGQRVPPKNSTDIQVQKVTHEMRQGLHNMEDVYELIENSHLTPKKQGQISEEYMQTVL
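HEK 293 cells stably expressing TSHR and a cAMP-gated CNG channel; parental CNG-only cells as counterscreen. Cells preloaded 60 min with membrane potential dye plus 100 uM RO 20-1724, then compound 30 min; fluorescence read at 590 nm.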
A488 fluor: A488 region autofluorescence; AID 591; max dye equivalency, M; actives 0.1% (n = 59,000); compound autofluorescence, A488 spectral region, dye equivalency; stronger effect = higher value; active = above 10 nM dye equivalent; inconclusive = 1 to 10 nM; inactive = 1 nM or less; about half of its hits are not listed in these tables;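 also: highest value over a series up to 38 µM; compound alone in buffer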
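Readout is A488 dye-equivalent concentration, calibrated by a per-plate six-point Alexa 488 series. Compounds in 100 mM Tris buffer pH 8.0 were incubated 15 min at room temperature. Plates were imaged using 480 nm excitation/540 nm emission filters.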
AID923: qHTS Assay for Allosteric/Competitive Inhibitors of Caspase-1: Spectroscopic Profiling in AFC Spectral Region; compound fluorescence, AFC spectral region (405/520 nm); almost no hit is shown here; actives 1.1% (n = 75,000); AID 923, 2007; Potency, µM (doses to about 57.5 µM), inactives show top-dose fluorescence increase, most hits filed as activators; active = well fitted activation curve with a large enough effect; inconclusive = small, poorly fitted or top-dose-only effect;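 also: potency is read from the fitted curve at half-maximal effect; 0% is about no effect; scaled to a free AFC standard on each plate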
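Titrations up to 57 uM read every 20 sec for 3 min (405/520 nm) with 50 nM caspase 1 and 5 uM Ac-WEHD-AFC, pH 7.5 HEPES buffer. Fluorescence-vs-time intercept gave baseline, scaled against on-plate AFC standard.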
A647 fluor: A647 region autofluorescence; Compound fluorescence, A647 channel (570/671 nm), Tris buffer; 59,000 tested, under 10 active; max dye-equivalent concentration, M; AID 592; active means above 1 µM dye equivalent; inconclusive means 0.1 to 1 µM; inactive means 0.1 µM or less;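 also: values scaled relative to a standard on each plate; highest value over a series up to 38 µM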
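Buffer was dispensed, compounds and Alexa 647 standards were pin-transferred, and plates sat 15 min at room temperature. Intensity at 570/671 nm was then converted to dye-equivalent concentration using the plate's A647 standard curve.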
The depositor's hits bear a star; i = inactive; u = inconclusive; x = not tested or not shown; [ ] = dose if it differs, or a comment. Some of the compounds tested (hit frequency here may not be typical).

Every second line gives: Resorufin autofl, TSHR ag, A488 fluor, AID923, A647 fluor
O=C(c1ccco1)N1CCN(C(=O)C(Sc2ccccc2)c2ccccc2)CC1 (stereo not drawn)
→ i, 17%, i, 0.0%, 1.4e-08
O=C(CSc1nnc(-c2cccnc2)n1Cc1ccco1)c1ccc(Cl)cc1
→ i, 11%, i, 0.2%, 2.2e-08
COc1ccc(CCNC(=O)c2nn(C)cc2Cl)cc1
→ i, 23%, i, 0.2%, 1.6e-08
COc1ccc(S(=O)(=O)N(C)CC(=O)Nc2ccc3c(c2)OCO3)cc1OC
→ i, -2%, i, -2.1%, 2.2e-08
O=C(NCCN1CCCCC1)/C(=N\O)c1ccccc1
→ i, x, i, x, 3.1e-09
c1ccc(Nc2cc(-c3ccoc3)ncn2)cc1
→ i, -1%, i, 4.0%, 8.3e-09
CCCCCCc1ccc(OCC(=O)O)cc1OCC(=O)O
→ i, u, i, 0.5%, 1e-09
O=C(O)C1CCCN(C(=O)NCc2ccccc2)C1 (stereo not drawn)
→ i, 1%, i, 0.0%, 1e-09
Cc1cc(C(=O)Nc2cccc(O)c2)c(C)o1
→ i, 5%, i, -2.0%, 1e-09
COc1ccc(C)cc1N(C(=O)CNC(=O)c1ccco1)C(C(=O)NC1CCCC1)c1cccnc1 (stereo not drawn)
→ i, u, i, 0.4%, 1e-09
COc1ccc(NC(=O)Nc2ccc(C(=O)N3CCOCC3)cc2)cc1
→ i, -3%, i, -1.7%, 1.6e-08
CCOC(=O)c1[nH]c(C)c(C(=O)N2CCN(c3cccc(Cl)c3)CC2)c1C
→ i, 3%[11.4 µM], i, -1.0%, 1e-09
COc1cccc(OCCn2cc(C(=O)c3ccco3)c3ccccc32)c1
→ i, u, i, 0.6%, 1e-09
CC(Sc1nc(N(C)C)nc(N2CCOCC2)n1)C(=O)Nc1ccccc1 (stereo not drawn)
→ i, -8%, i, -2.4%, 1e-09
CC(C(=O)Nc1nc2ccccc2[nH]1)N1C(=O)C2CC=CCC2C1=O (stereo not drawn)
→ i, -3%, i, -2.2%, 4.3e-08
CCCCn1c(-c2cc(Cl)ccc2OC)n[nH]c1=S
→ i, u, i, 1.1%, 1e-09
COC(=O)c1cc(C)sc1NC(=O)c1cccnc1
→ i, 3%, i, -2.7%, 1e-08
N#C/C(=C(/O)COC(=O)Cc1c[nH]c2ccccc12)c1nc2ccccc2[nH]1
→ i, u, i, 4.2%, 1e-09
CC1CCCC(C)N1c1nnc(N)s1 (stereo not drawn)
→ x, 4%, x, -1.9%, x
Cc1ccc(S(=O)(=O)Nc2ccc(NC(=O)CN3CCCCC3)cc2)cc1
→ i, x, i, 0.4%, 2.4e-08

Copied from the list.
COC(=O)c1cc(C)sc1NC(=O)c1cccnc1 – TSHR ag = 3%
CCOC(=O)c1[nH]c(C)c(C(=O)N2CCN(c3cccc(Cl)c3)CC2)c1C – A647 fluor = 1e-09

Further results follow.
Every second line gives: Resorufin autofl, TSHR ag, A488 fluor, AID923, A647 fluor
CCCCC(=O)Nc1ccc(C(=O)NCCCn2ccnc2)cc1
→ i, 5%, i, 1.5%, 2.5e-09
COc1ccc(CNC(=O)COc2ccc(S(=O)(=O)NC(C)C)cc2)cc1
→ i, 29%, i, -0.1%, 5.8e-09
Fc1ccc2nc(N3CCCCC3)sc2c1
→ i, 18%, i, -1.5%, 2.9e-08
CC(C)NC(=O)NC(=O)COc1ncnc2sccc12
→ i, 2%[11.4 µM], i, 1.5%, 8e-09
CC(OCc1ccccc1)C(NC(=O)OC(C)(C)C)C(=O)NCC1CCCO1 (stereo not drawn)
→ i, 3%, i, 0.6%, 2.5e-09
COc1cc(C(=O)NCc2nnc(SCC(=O)NCc3ccccc3)o2)cc(OC)c1OC
→ i, 8%[11.4 µM], i, 2.0%, 2.7e-09
CCCOC(=O)CSc1nnc(-c2cc(OC)c(OC)c(OC)c2)o1
→ x, 8%, x, 1.3%, x
COC(=O)c1ccc(OCC2c3cc(OC)c(OC)cc3CCN2C(=O)c2ccco2)cc1 (stereo not drawn)
→ i, 32µM*, i, 2.4%, 8.9e-09
OC1(c2ccc(F)cc2)CCN(Cc2nnnn2Cc2cccs2)CC1
→ i, -4%, i, 1.4%, 2.1e-08
O=C1[C@H]2[C@H]3[C@H](O)[C@H](O)C/C(=N/OCc4ccccc4)[C@H]3CC[C@@H]2C(=O)N1C[C@@H]1CCCO1
→ x, -9%[11.4 µM], x, 6.9%[11.5 µM], x
CC(=O)OC[C@@H]1O[C@H](CCO/N=C(\C)CCC(=O)OC[C@@H]2O[C@H](C#Cc3ccccc3)C=C[C@@H]2Oc2ccc(C)cc2)C=C[C@@H]1OC(C)=O
→ x, 3%[11.4 µM], x, 7.7%[11.5 µM], x
CC(=O)O[C@@H]1CC(C)=C2[C@H]1[C@H](C)CC[C@H]2/C=C(\C)C(=O)O
→ x, 2%, x, -3.5%, x
Cc1ccc(C)c(CSc2nnc(-c3ccccn3)n2N)c1
→ i, 13%, i, -1.2%, 3.6e-09
CCCCN(Cc1cc2cc(OC)ccc2[nH]c1=O)C(=O)c1ccco1
→ i, u, i, 3.4%, 1e-09
C/C=C/OC(=O)NC(c1ccccc1)[C@@]1(C(=O)OCC)CCCC1=O (stereo partly drawn)
→ x, u, x, -3.2%[11.5 µM], x
CCOC1CCCCC1NS(=O)(=O)c1ccc(Cl)cc1 (stereo not drawn)
→ x, 17%, x, 1.6%, x
COc1cccc(-n2c(SCC(=O)NCCC3=CCCCC3)nc3n[nH]c(C)c3c2=N)c1
→ i, 1%, i, 0.0%, 1.5e-08
COC(=O)c1ccc2c(=O)n(C3CCCCC3)c(SCC#N)nc2c1
→ i, u, i, 0.8%, 1e-09
CCn1c(Cn2nnc(-c3ccccc3)n2)nnc1SCC(=O)Nc1cccc(C)c1C
→ i, 4%, i, -0.8%, 1.1e-08
Cc1ccc(C(=O)OCC(=O)N2CC(=O)Nc3ccccc32)s1
→ i, -1%, i, -1.0%, 7.7e-09
CCCN(CCC)CCCNC(=O)c1ccc2c(c1)N(CC)C(=O)c1ccccc1S2=O (stereo not drawn)
→ i, 3%, i, 2.0%, 1e-09
CCC(C)[C@@H](C(=O)Nc1ccc2c(c1)OCO2)N1Cc2ccccc2C1=O (stereo partly drawn)
→ x, 16%, x, -2.4%, x
Cn1c(SCC(=O)NCc2ccc3c(c2)OCO3)nnc1C1COc2ccccc2O1 (stereo not drawn)
→ i, u, i, -0.3%, 2.5e-08
O=C(Nc1cccc(NC(=O)c2ccc(-c3cccc(Br)c3)o2)c1)c1ccco1
→ i, u, i, 2.1%, 3.3e-08
Cc1ccc(-c2cc(-c3ccc4c(c3)OCO4)c(C#N)c(N)n2)o1
→ i, u, i, 11%, 4.7e-09
CCOCCc1nnc(NC(=O)c2cccc(F)c2)s1
→ i, -1%, i, -2.0%, 1e-09
CCOC(=O)N1CCN(c2cc(=O)n(-c3cccc(Br)c3)c(=O)[nH]2)CC1
→ x, 6%, x, 0.8%, x
Cc1cc(Nc2cccc(F)c2)n2nc(C)nc2n1
→ x, 4%, x, -2.7%, x
CN(c1ccccc1C(=O)Nc1cccnc1)S(C)(=O)=O
→ i, -1%, i, 0.7%, 1e-09
COCOc1ccc(Br)cc1C(=O)[C@H]1O[C@H]1c1cccc(OC)c1
→ x, u, x, -1.9%[11.5 µM], x

Profiles, looked up by structure:
Shown for `O=C(Nc1cccc(NC(=O)c2ccc(-c3cccc(Br)c3)o2)c1)c1ccco1` → Resorufin autofl: i; TSHR ag: u; A488 fluor: i; AID923: 2.1%; A647 fluor: 3.3e-08
Shown for `Cc1cc(Nc2cccc(F)c2)n2nc(C)nc2n1` → Resorufin autofl: x; TSHR ag: 4%; A488 fluor: x; AID923: -2.7%; A647 fluor: x

The listing continues:
Every second line gives: Resorufin autofl, TSHR ag, A488 fluor, AID923, A647 fluor
O=C(CCCN1C(=O)c2ccccc2C1=O)Nc1ccccc1C(=O)N1CCOCC1
→ x, -4%, x, 0.2%, x
O=C(CSc1nc2ccccc2c(=O)n1NC(=O)Cc1ccccc1)NCc1ccco1
→ i, -1%, i, -0.6%, 3.8e-09
CCOc1ccc(C(=O)CCNC(Cc2cnc[nH]2)C(=O)O)cc1 (stereo not drawn)
→ x, 10%[11.4 µM], x, 2.6%, x
CCc1c(C)[nH]c2ccc(C)cc2c1=O
→ i, 2%, i, 3.7%, 1e-09
CCn1c2ccccc2c2nnc(SCC(=O)Nc3cc(C)on3)nc21
→ i, 3%, i, -1.7%, 1.7e-08
Cc1cc(C)nc(NS(=O)(=O)c2ccc(NC(=O)c3ccco3)cc2)n1
→ x, -6%, x, 1.7%, x
COc1cc(CCC(=O)OCC(=O)Nc2ncc(Cl)cc2Cl)cc(OC)c1OC
→ i, 2%, i, 1.2%, 1.7e-08
CC(=O)N1CC=CC1(CC(C)C)C(=O)NCc1cc(F)cc(C(F)(F)F)c1 (stereo not drawn)
→ x, 5%, x, -0.7%, x
CCCCN(CCCC)CCNC(=O)Cc1nc2c(c(=O)[nH]c(=O)n2C)n1C
→ i, 8%, i, 0.0%, 4.3e-08
CC1CN(C(=O)c2cccc(C(=O)N3CC(C)OC(C)C3)c2)CC(C)O1 (stereo not drawn)
→ i, -3%, i, 0.7%, 2.1e-08
CSc1nsc(SCC(=O)Nc2c(C)n(C)n(-c3ccccc3)c2=O)n1
→ i, -3%, i, -0.9%, 4e-08
CCOc1ccc(NC(=O)C2CCN(S(=O)(=O)c3c(C)n[nH]c3C)CC2)cc1
→ i, -1%, i, -0.5%, 5.9e-09
Cc1ccccc1CCNC(=O)C1CCN(S(=O)(=O)c2ccc(-n3cnnn3)cc2)CC1
→ i, -16%, i, -2.3%, 3.8e-09
Cc1ccc(NC(=O)CSc2nnc(CNC(=O)c3c(F)cccc3Cl)o2)cc1
→ i, 10%[11.4 µM], i, 0.4%, 1e-09
CC[C@H](c1ccccc1)c1cc(C(C)(C)C)cc(C(C)(C)C)c1O
→ i, x, i, -1.9%[11.5 µM], 1e-09
Cc1cc(C)c2cc(CN(Cc3cccs3)Cc3nnnn3CC3CCCO3)c(=O)[nH]c2c1 (stereo not drawn)
→ i, u, i, 0.5%, 1.1e-08
O=C(c1ccccc1)c1ccc(Oc2ncccn2)cc1
→ i, -1%, i, 0.2%, 1.9e-09
CCOC(=O)C(Cc1c(F)cccc1F)(NC(C)=O)C(=O)OCC
→ x, 5%, x, -1.0%, x
CC1SC(=NC(=O)c2ccco2)NC1=O (stereo not drawn)
→ x, 4%[11.4 µM], x, -0.6%, x
COCCn1c(=O)c(-c2cccc(C#N)c2)nc2cnc(Oc3ccccc3)nc21
→ i, -3%, i, 2.7%, 1e-09
O=C(c1cnccn1)N1CCC2(CC1)CN(Cc1ccccc1)C2
→ i, 2%, i, 1.6%, 9.7e-09
O=C(O)C1C2C=CC3(O2)C1C(=O)N1c2ccccc2C2OCCC2C13 (stereo not drawn)
→ i, -8%, i, 0.3%, 1.6e-08
CCOc1ccc(NC2=NCCC(=O)N2Cc2cccs2)cc1
→ i, u, i, -0.1%, 6.5e-09
CCOc1ccc(Cc2nc(N)nc(N)n2)cc1
→ i, x, i, x, 7.2e-09
COc1ccc(CCNC(=O)C2CCN(Cc3nc(-c4cccc(Cl)c4)oc3C)CC2)cc1OC
→ i, 5%, i, 1.1%, 4e-08
O=C(CC(=O)N1CCN(c2ccccn2)CC1)Nc1ccc2nc3n(c(=O)c2c1)CCCCC3
→ x, -3%, x, -3.5%, x
COC(=O)CNC(=O)C1CCN(c2nc(C)cc(C)n2)CC1
→ i, -10%, i, -2.2%, 4.9e-08
CCOc1ccc(C2CC(c3cccc(OC)c3)Nc3ncnn32)cc1 (stereo not drawn)
→ x, 9%, x, -1.5%, x
CC(C)NC(=O)N1CC2(CCN(C(=O)c3cccn3C)CC2)C1
→ i, u, i, 1.3%, 5.3e-09
COc1ccc(Oc2cn[nH]c2-c2ccc(O)cc2O)cc1
→ i, u, i, -0.9%, 2.7e-08
O=C(O)c1cc(NCc2ccc3c(c2)OCO3)ccc1N1CCOCC1
→ i, u, i, 2.2%, 3.8e-08
